# From PubChem
# Mtb hypoxia rep = PubChem AID 1159583 | M. tuberculosis hypoxia-regulated fluorescent reporter, fluorescence | 300,000 compounds, 0.1% hits | fluorescence inhibition, % (concentration not given with the values);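 active = 35 to 45% if threefold the growth effect, above 45% if 1.5-fold the growth effect; inactive = the rest, general growth blockers included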;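 also: wells of about 50 µL received 100 nL stock; 0% = vehicle wells and 100% = reference inhibitor wells; whole bacteria with a GFP reporter of the hypoxia response; strong numbers were not always called active; many hits fall short of the cut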
# BJeLR viability = MLPCN primary cell-based screen for lethality selective to Ras in HRASV12 cells; BJeLR (HRASV12) viability, CellTiter-Glo ATP luminescence, 48 h; reference of the scale not given here; inhibition, % (no concentration beside the values); 300,000 compounds, 0.17% hits; AID 1554, 2009;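 active = replicate mean above 50%; inconclusive = above 50% but judged a plate artefact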;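 also: 50 nL library stock added to about 25 µL; numbers are from one replicate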
# PrP 5UTR inh = inhibition of PrP 5' UTR reporter expression | cell-based PrP 5' UTR mRNA reporter, plate reader | inhibition, % (concentration not given with the values) | 340,000 compounds, 0.35% hits;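 active = every replicate at 50% or more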;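 also: 0 = median of the neutral control wells; tested in H4 reporter cells; numbers are from one replicate; inactives centre near -14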
# Bead autofluor = counter-screen for toxin protease inhibitors: compound fluorescence; compound autofluorescence counterscreen, microsphere flow cytometry; hits give high values; fluorescence intensity (test concentration not listed); 360,000 compounds, 3.1% hits; AID 624483;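 active = at least 3 SD above the mean of all compounds, about 16000 in these data; inconclusive = too few beads counted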;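 also: 100 nL of 1 mM stock went into each well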
# Sa ugtP lethal = growth inhibition of ugtP-null S. aureus, primary screen, RN4220 ugtP deletion, OD600. 16 h; some inactives read as strong as hits. 330,000 compounds, 0.54% hits. growth inhibition, % (concentration not given with the values);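 active = z-score under -3 and OD600 up to 0.15 on both plates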;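 also: plate controls were untreated wells for no effect and antibiotic for full effect; wells of about 80 µL received 100 nL stock; the first replicate is given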
# RN4220 kill = growth inhibition of S. aureus RN4220, primary screen, OD600; 16 h; inhibition, % (concentration not given with the values); 330,000 compounds, 0.33% hits;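 active = z-score of -3 or lower and OD600 up to 0.18 on both plates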;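 also: plate controls were untreated cells for no effect and reference antibiotic for full effect; stock transfer was 100 nL into about 80 µL; one replicate is shown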
# Mtb hypoxia rep growth = further read-out of Mtb hypoxia rep, marked with its call; growth inhibition, %; measured here: M. tuberculosis growth (absorbance);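 0% = vehicle and 100% = reference antibiotic; read after six days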
# * marks the source's active call; other numbers are inactive results; u = inconclusive; x = not tested or not shown.
SMILES,Mtb hypoxia rep,Mtb hypoxia rep growth,BJeLR viability,PrP 5UTR inh,Bead autofluor,Sa ugtP lethal,RN4220 kill
COc1ccc(S(=O)(=O)N2CCOC2CNC(=O)C(=O)NCCCN2CCOCC2)cc1 (stereo not drawn),2.5,-3.6,-0.8,-9.9,6259,1.9,1.2
CC1CN(C(C)CO)C(=O)c2cccc(NS(=O)(=O)c3cn(C)cn3)c2OC1CN(C)S(C)(=O)=O (stereo not drawn),5.7,3.1,x,x,x,16.4,8.9
C=CS(=O)(=O)c1ccc(Oc2ccc(S(=O)(=O)C=C)cc2)cc1,10.8,-0.3,37.2,2.0,2053,2.2,1.2
COc1ccc(CNC(=O)C(C)NS(=O)(=O)c2ccc(C)cc2)cc1 (stereo not drawn),1.7,12.8,-2.9,-13.1,3194,7.6,-1.2
Cn1c(SCc2ccon2)nc2ccccc2c1=O,-10.6,-10.5,-0.1,-25.7,8607,-1.8,7.2
Cn1c(=O)c(=O)n(C)c2cc(S(=O)(=O)N3CCOc4ccccc43)ccc21,9.9,6.2,-1.3,-18.5,3441,11.2,3.7
CCOC(=O)c1cccc(NC(=O)C(C)N2C(=O)c3ccccc3C2=O)c1 (stereo not drawn),x,x,1.0,-9.8,2279,-1.8,0.3
COc1cc2c(cc1OC)C(C)N(C(=O)c1cc(C)on1)CC2 (stereo not drawn),7.4,9.3,12.9,25.7,5629,3.1,2.7
Cc1ccccc1NC(=O)C(Cl)=C(Cl)Cl,-5.9,-5.1,-5.2,-12.1,2405,-8.5,-6.5
C=CCNC(=S)Nc1ccc(OC(F)F)c(Cl)c1,3.0,7.4,2.1,-30.3,3986,-8.6,-4.0
Cc1ccc(NCc2ccccc2O)cc1C,8.0,9.5,13.1,-71.2,4977,2.0,-0.3
CCOC(=O)N1CCN(C(=O)/C=C/c2cccc([N+](=O)[O-])c2)CC1,3.9,1.5,2.7,-8.3,4511,7.6,3.2
CCCCN(C(=S)Nc1cccc(SC)c1)C1CCN(C(C)=O)CC1,2.8,12.6,-6.1,-15.2,4886,3.7,0.3
CCn1c(O)c(/C=N/NC(=O)c2ccncc2)c(=O)[nH]c1=S,x,x,-15.0,-18.2,3521,x,x
CCOc1ccc(-c2nc(CSc3nnc(N)s3)cs2)cc1,7.4,8.5,9.9,-87.2,2141,2.6,3.5
N#C/C(=C\c1coc2ccc(O)cc2c1=O)C(=O)Nc1nc2ccccc2s1,7.2,13.0,-8.4,5.4,3945,12.1,16.8
Cn1c(SCC(=O)N/N=C/C=C/c2ccco2)nc2ccccc21,x,x,5.2,-11.0,2512,x,x
CCN1CC2=C(OC(N)=C(C#N)C2c2ccccc2)/C(=C\c2ccccc2)C1 (stereo not drawn),x,x,-6.3,-3.3,5347,-1.0,-0.8
Oc1c(Cl)cc(Cl)cc1C=Nc1nccs1,2.5,7.5,x,x,x,3.1,24.2
Cc1ccccc1OCC(=O)NNC(=S)NC(=O)c1ccccc1[N+](=O)[O-],-0.5,4.0,-3.9,-8.4,2617,-9.9,20.3
O=C1CC(NS(=O)(=O)c2cccnc2)CN1c1ccccc1 (stereo not drawn),11.8,-9.7,10.6,15.2,u,9.1,2.3
COc1ccc(CCNC(=O)C(=O)NCC2CCCO2)cc1 (stereo not drawn),6.8,4.3,-3.8,-9.9,3273,-6.1,-17.0
COc1ccc(Cl)cc1NC(=O)CN1CCN(S(=O)(=O)N2CCOCC2)CC1,9.5,-1.3,-5.6,-6.7,3954,-5.7,1.5
N=c1ccn(Cc2ccc([N+](=O)[O-])cc2)cc1,4.0,-0.5,-4.6,-48.2,4154,0.9,0.4
CC12CCC(C(=NO)C1=NO)C2(C)C (stereo not drawn),19.3,8.4,x,1.0,3464,2.8,4.3

# Part of the list above, with values under each structure.
# Values in the order: Mtb hypoxia rep	Mtb hypoxia rep growth	BJeLR viability	PrP 5UTR inh	Bead autofluor	Sa ugtP lethal	RN4220 kill
> COc1ccc(CNC(=O)C(C)NS(=O)(=O)c2ccc(C)cc2)cc1 (stereo not drawn)
  1.7	12.8	-2.9	-13.1	3194	7.6	-1.2
> Cn1c(SCc2ccon2)nc2ccccc2c1=O
  -10.6	-10.5	-0.1	-25.7	8607	-1.8	7.2
> Cn1c(=O)c(=O)n(C)c2cc(S(=O)(=O)N3CCOc4ccccc43)ccc21
  9.9	6.2	-1.3	-18.5	3441	11.2	3.7
> CCOC(=O)c1cccc(NC(=O)C(C)N2C(=O)c3ccccc3C2=O)c1 (stereo not drawn)
  x	x	1.0	-9.8	2279	-1.8	0.3
> COc1cc2c(cc1OC)C(C)N(C(=O)c1cc(C)on1)CC2 (stereo not drawn)
  7.4	9.3	12.9	25.7	5629	3.1	2.7
> Cc1ccccc1NC(=O)C(Cl)=C(Cl)Cl
  -5.9	-5.1	-5.2	-12.1	2405	-8.5	-6.5
> C=CCNC(=S)Nc1ccc(OC(F)F)c(Cl)c1
  3.0	7.4	2.1	-30.3	3986	-8.6	-4.0

# Following part
SMILES,Mtb hypoxia rep,Mtb hypoxia rep growth,BJeLR viability,PrP 5UTR inh,Bead autofluor,Sa ugtP lethal,RN4220 kill
COc1ccc(CNS(=O)(=O)CCNC(=O)c2ccc(OC)cc2)cc1,-9.2,5.9,-7.2,-53.8,5920,2.2,6.9
O=C1c2cccc3cccc(c23)C(=O)N1CCN1CCN(C(=S)Nc2ccc(Cl)cc2)CC1,3.6,1.0,-7.9,-11.6,2555,-5.0,-1.1
CC(C)(O)C#Cc1ccc(CN2CCN(C3CCCCC3)C(CCO)C2)s1 (stereo not drawn),1.7,0.4,6.9,-8.4,2197,0.5,0.1
CCN(CC)CCn1nc(C)nc1-c1ccccc1O,7.1,-3.3,3.6,-20.4,7269,17.7,7.9
O=C(CCc1nc(-c2ccccc2)no1)NCCc1ccccc1,-5.5,3.7,-12.9,-20.3,22301*,-2.7,-4.1
Cc1nc2c(C)cccc2cc1C(=O)N/N=C/c1ccc(O)cc1,x,x,-6.7,-11.4,2525,x,x
COc1ccc(-c2noc(=O)n2Cc2cc(C)ccc2C)cc1,5.3,3.3,6.7,-9.1,4481,4.2,6.6
O=c1cnnc(Nc2ccc(Nc3ccccc3)cc2)[nH]1,-5.9,1.8,8.0,-14.7,3730,1.2,2.5
OCCC1CN(Cc2ccc3cccc(F)c3n2)CCN1Cc1ccccc1 (stereo not drawn),-8.9,14.4,-10.9,-24.1,4034,7.8,1.6
O=C(N/N=C/c1ccc2c(c1)OCO2)c1ccc(COc2cccc3cccnc23)cc1,x,x,6.7,-63.0,4228,x,x
COc1ccc(OCCOCCN2CCN(C)CC2)cc1,4.9,9.5,-2.2,-15.2,3358,8.9,4.5
O=C(CN(Cc1ccccc1)C(=O)c1cc2c(s1)CCC2)NCc1cccs1,7.9,5.5,-0.4,5.6,6794,8.0,-1.6
CSCC[C@H](NC(=O)N1CCn2c1nc1ccccc12)C(=O)NCc1ccccc1,14.1,1.5,7.5,10.6,5932,3.7,0.2
O=C(NCCc1ccccc1)c1ccc2c(c1)OCO2,14.1,33.1,5.0,58.1*,6525,2.0,4.6
Cc1ccc(C=NNC(=O)Cn2nccc2C)o1,0.3,-5.0,x,x,x,-2.4,-2.2
COc1ccc(NC(=O)CSc2nc(N)c(NC(=O)c3cccs3)c(=O)[nH]2)cc1,-7.6,3.4,3.4,-21.2,4094,1.1,3.2
COc1ccc(C2(C)NC(=O)N(CC(=O)Nc3c(C)n(C)n(-c4ccccc4)c3=O)C2=O)cc1 (stereo not drawn),-16.7,0.5,-5.0,-15.5,u,-6.2,-2.7
O=S(=O)(NCCN1CCOCC1)c1ccc(Oc2ccccc2Cl)cc1,2.5,-0.8,-3.4,-9.1,5551,8.2,2.6
CCCC=NNC(=O)c1cc(-c2ccccc2)nc2ccccc12,19.5,8.8,x,x,x,-2.3,2.6
Nc1c(C(=O)Nc2ccc(Br)cc2)sc2nc(-c3ccco3)ccc12,-3.4,-4.4,11.0,x,9514,9.0,12.9
CCN1C[C@]2(CO)CC[C@H](OC)[C@@]34C5C[C@H]6[C@H](OC)C5[C@](O)(C[C@H]6OC)[C@@H](C(OC)C23)[C@@H]14 (stereo partly drawn),x,x,-10.2,2.1,5487,1.6,4.7
Cc1cc(C)cc(NC(=S)N2CCN(S(C)(=O)=O)CC2)c1,0.9,-9.0,-3.0,-18.6,6056,3.1,0.4
O=C(Cn1c(=O)oc2ccccc21)NCCc1ccccc1Cl,1.8,5.9,-38.8,-26.1,3770,10.3,1.4
O=C(NN=C1CCN(Cc2ccccc2)CC1)c1cc2ccccc2cc1O,1.2,7.9,0.2,-14.6,1571,-3.1,8.9
COc1ccc(C(=O)Cc2cc3ccccc3oc2=O)cc1,-7.2,4.2,-2.7,-43.2,3995,8.3,4.0

# The list continues.
SMILES,Mtb hypoxia rep,Mtb hypoxia rep growth,BJeLR viability,PrP 5UTR inh,Bead autofluor,Sa ugtP lethal,RN4220 kill
Cc1ccc(NC(=O)CN(C)CC(=O)Nc2ccc(N3CCOCC3)cc2)c(C)c1,-4.2,-10.8,4.1,-10.9,7534,1.7,-2.1
COCCn1cc(C(=S)N2CCOCC2)c2ccccc21,-0.2,1.9,-3.5,-2.2,22910*,-3.9,0.2
COc1ccc(CN2CCOCCOCCN(Cc3ccc(OC)cc3)CCOCCOCC2)cc1,11.8,8.0,-0.2,-21.8,x,8.5,3.0
O=C(NCCc1ccncc1)C(F)(F)F,4.6,15.1,2.1,-21.3,24347*,-0.7,2.0
C/C(=N\Nc1nc(C)cc(-c2ccccc2)n1)c1ccc(O)cc1,x,x,2.7,-13.2,4166,x,x
O=C(CCCOc1ccccc1)Nc1ccncc1,12.9,3.5,6.1,-24.7,2516,-0.7,7.5
O=C(CCS(=O)(=O)c1cccc2nonc12)N1CCN(c2ccc(F)cc2)CC1,13.0,10.6,5.5,0.0,3238,4.8,-0.1
CC[n+]1c(C)n(C)c2cc(S(=O)(=O)N(C)C)ccc21,-10.2,-15.3,-1.1,-2.2,3429,7.4,3.1
N/C(=N\OC(=O)CSc1ccccc1)c1ccc([N+](=O)[O-])cc1,x,x,-0.7,-34.5,2932,x,x
CN1C(=O)C(O)(CC(=O)/C=C\c2ccc3c(c2)OCO3)c2ccccc21 (stereo not drawn),11.9,5.9,x,-37.0,4794,10.3,8.1
C(=N\N1CCN(c2ccccn2)CC1)/c1ccco1,x,x,-5.6,-53.5,4553,x,x
Cc1cc(C)nc(N/N=C/c2ccco2)n1,x,x,4.9,-25.2,7861,x,x
CCc1ccc(S(=O)(=O)N(C(=O)c2ccncc2)c2ccc(OC(=O)c3ccncc3)cc2)cc1,-4.8,0.4,-19.3,4.0,2410,3.8,5.1
CC1(CCl)CN1S(=O)(=O)c1ccccc1 (stereo not drawn),19.5,18.2,-1.7,-3.8,4613,-3.9,2.2
Cc1ccc(NC(=O)CCNC(=O)c2ccc(Br)cc2)nc1,-0.6,-3.9,9.4,-10.2,4174,15.0,3.5
CCOC(=O)C1=C(COC(=O)/C=C/c2ccc(Cl)cc2)NC(=O)NC1C (stereo not drawn),-5.4,-8.5,-1.1,-10.7,5386,0.7,1.8
Cc1ccc(S(N)(=O)=O)cc1NC(=O)/C=C/c1ccc2c(c1)OCO2,9.9,-2.0,0.0,-23.6,3255,-2.6,5.8
CC(c1ccccc1)N1CCn2c(nc3cc(NC(=O)NC4CCCCC4)ccc32)C1 (stereo not drawn),2.2,7.3,-2.0,-15.1,19391*,8.3,4.5
Cc1cc(SCc2ccc([N+](=O)[O-])cc2)nc(=O)[nH]1,6.3,-0.1,-0.6,-9.0,5567,-2.7,4.9
CCOC(=O)N1CCC(NC(=O)Cn2cccc2C(=O)c2ccccc2C)CC1,2.3,3.6,-2.2,-7.6,u,-3.3,6.8

# Reformatted as tab-separated lines: part of the list above.
SMILES	Mtb hypoxia rep	Mtb hypoxia rep growth	BJeLR viability	PrP 5UTR inh	Bead autofluor	Sa ugtP lethal	RN4220 kill
CC1(CCl)CN1S(=O)(=O)c1ccccc1 (stereo not drawn)	19.5	18.2	-1.7	-3.8	4613	-3.9	2.2
Cc1cc(SCc2ccc([N+](=O)[O-])cc2)nc(=O)[nH]1	6.3	-0.1	-0.6	-9.0	5567	-2.7	4.9
COc1ccc(CN2CCOCCOCCN(Cc3ccc(OC)cc3)CCOCCOCC2)cc1	11.8	8.0	-0.2	-21.8	x	8.5	3.0
O=C(NCCc1ccncc1)C(F)(F)F	4.6	15.1	2.1	-21.3	24347*	-0.7	2.0
Cc1ccc(NC(=O)CN(C)CC(=O)Nc2ccc(N3CCOCC3)cc2)c(C)c1	-4.2	-10.8	4.1	-10.9	7534	1.7	-2.1
Cc1cc(C)nc(N/N=C/c2ccco2)n1	x	x	4.9	-25.2	7861	x	x
